# KCNQ2 pot = enhances the rat KCNQ2 potassium channel; O88943; CHO-K1 KCNQ2, FluxOR thallium flux fluorescence; stronger effect = higher value; B-score at 10 µM; hit rate 0.54% among 310,000; AID 2239;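 active = fluorescence ratio B-score at least 3 SD of library B-scores, with initial fluorescence B-score within 3 SD, cut at about 5.3 in these data; same plate scores as AID 2156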;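 note: B-score of peak minus minimum over baseline fluorescence ratio after K+ and Tl+ stimulus; positive B-score means potentiation of KCNQ2 with more thallium influx and brighter signal; only the inactives scoring about 0 or higher are listed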
# Target sequence (O88943 whole entry, looked up): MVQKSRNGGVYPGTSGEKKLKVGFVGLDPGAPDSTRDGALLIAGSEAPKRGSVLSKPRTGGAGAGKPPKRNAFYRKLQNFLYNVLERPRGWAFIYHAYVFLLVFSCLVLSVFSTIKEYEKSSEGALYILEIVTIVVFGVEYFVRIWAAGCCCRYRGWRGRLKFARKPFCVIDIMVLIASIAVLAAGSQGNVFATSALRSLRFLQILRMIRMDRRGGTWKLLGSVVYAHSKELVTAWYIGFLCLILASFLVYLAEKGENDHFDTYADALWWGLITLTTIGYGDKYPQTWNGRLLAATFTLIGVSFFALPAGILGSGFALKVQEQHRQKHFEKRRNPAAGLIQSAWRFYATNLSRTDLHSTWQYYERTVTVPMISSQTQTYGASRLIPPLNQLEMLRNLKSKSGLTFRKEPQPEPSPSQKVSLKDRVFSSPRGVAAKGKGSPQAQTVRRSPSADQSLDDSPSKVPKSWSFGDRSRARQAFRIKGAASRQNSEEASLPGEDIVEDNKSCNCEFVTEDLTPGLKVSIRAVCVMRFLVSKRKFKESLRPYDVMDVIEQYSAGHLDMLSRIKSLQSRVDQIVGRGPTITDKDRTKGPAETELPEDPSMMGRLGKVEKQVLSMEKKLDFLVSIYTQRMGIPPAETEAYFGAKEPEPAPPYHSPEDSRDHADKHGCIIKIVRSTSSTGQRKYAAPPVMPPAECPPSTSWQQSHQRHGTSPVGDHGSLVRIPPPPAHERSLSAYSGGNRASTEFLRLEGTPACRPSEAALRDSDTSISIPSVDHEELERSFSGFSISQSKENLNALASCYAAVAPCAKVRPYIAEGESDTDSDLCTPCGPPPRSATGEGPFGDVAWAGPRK
# KCNQ2 pot baseline = recorded beside KCNQ2 pot, whose call it bears; B-score; compound at 10 µM; measured here: initial fluorescence intensity artifact check;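 brightness before thallium and not channel activity; 0 = typical well and far values either way flag optical interference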
# Active calls of the source: *. A portion of the library; rates above refer to the full screens.
KCNQ2 pot,KCNQ2 pot baseline,Molecule
1.13,0.62,Cc1cc(C)cc(OCC(=O)NN2Cc3ccccc3C2=N)c1
3.79,0.76,Cc1c(Cl)cccc1NC(=O)C1CC2CCC1C2 (centres undefined)
0.91,-0.73,CCOC(=O)c1ccc(CSC(=N)N)o1
0.32,-0.19,CC(C)c1ccc(NC(=O)C2CCC(CNC(=O)[C@@H]3Cc4ccccc4CN3)CC2)cc1 (some centres undefined)
0.43,-0.89,S=C(Nc1cccc(Cl)c1)NC1CCCCC1
1.67,-1.37,CCOC(=O)c1cnc2c(c(C)nn2CC)c1Cl
0.14,0.48,COC(=O)c1c(C(=O)OC)c(-c2cccc(C)c2)n2c1CS(=O)(=O)C2
0.46,-1.03,Cc1ccc2c(c1)N(C(=O)CCC(=O)N1CCN(c3ccccn3)CC1)CCO2
8.36*,0.03*,COC(=O)n1c(=S)oc2cc(Cl)ccc21
1.55,-0.6,N#CCCN(C(=O)Nc1ccccc1)c1ccccc1
0.27,0.02,O=C(CCc1ccc(S(=O)(=O)N2CCOCC2)cc1)Nc1nc(COc2ccccc2)cs1
1.15,0.6,CCn1c(C)cc(/C=C2\SC(=O)N(CC(=O)Nc3ccc(C)c(C)c3)C2=O)c1C

# Seven entries already listed, sorted by their value in KCNQ2 pot baseline, low to high.
KCNQ2 pot,KCNQ2 pot baseline,Molecule
0.46,-1.03,Cc1ccc2c(c1)N(C(=O)CCC(=O)N1CCN(c3ccccn3)CC1)CCO2
0.43,-0.89,S=C(Nc1cccc(Cl)c1)NC1CCCCC1
1.55,-0.6,N#CCCN(C(=O)Nc1ccccc1)c1ccccc1
0.32,-0.19,CC(C)c1ccc(NC(=O)C2CCC(CNC(=O)[C@@H]3Cc4ccccc4CN3)CC2)cc1 (some centres undefined)
8.36*,0.03*,COC(=O)n1c(=S)oc2cc(Cl)ccc21
0.14,0.48,COC(=O)c1c(C(=O)OC)c(-c2cccc(C)c2)n2c1CS(=O)(=O)C2
1.13,0.62,Cc1cc(C)cc(OCC(=O)NN2Cc3ccccc3C2=N)c1

# Going on with the list.
KCNQ2 pot,KCNQ2 pot baseline,Molecule
0.98,0.18,C/C(=N/NC(=O)CN1CCN(S(=O)(=O)c2ccc(C)cc2)CC1)c1cccc(O)c1
1.02,1.36,COc1cc(C(=O)NCCCc2ccccc2)cc(OC)c1OC
0.77,2.44,CCCCn1c(N)c(N(CCOC)C(=O)c2ccc(COc3ccccc3)o2)c(=O)[nH]c1=O
0.5,-0.11,COC(=O)C1=CN(Cc2cccs2)C=C(C(=O)OC)C1c1cccc(O)c1
0.94,-1.39,COc1ccc(Br)c(C(=O)NCCC(C)C)c1
1.58,1.4,CCOC(=O)N1CCN(C(=O)c2cc3c(-c4ccc(Cl)cc4)nn(C)c3s2)CC1
2.37,0.81,COc1ccc(-c2csc(NC(C)c3nc4cc(Cl)c(N5CCCCC5)cc4n3CCCO)n2)cc1 (centres undefined)
0.01,-0.72,O=c1[nH][nH]c(=O)n1-c1ccccc1
2.2,-0.04,CC(C)=CCSc1nnc(CCNC(=O)OC(C)(C)C)o1
0.73,1.13,Cc1ccsc1/C=N/Nc1nc2ccccc2[nH]1
0.33,1.87,CCCCn1c(=O)c(CCC(=O)OCC(=O)Nc2ccc(F)c(Cl)c2)nc2ccccc21
0.72,-1.45,CCOC(=O)c1c(NC(C)=O)sc2c(O)c(Br)ccc12
1.33,-2.17,CC(C)c1ccc(NC(=S)NNC(=O)C2CC2)cc1
0.07,-1.45,Cc1c(NC(=O)c2ccccc2)cccc1[N+](=O)[O-]
21.4*,1.22*,COc1cccc2sc(Nc3nnc(-c4ccccc4Cl)o3)nc12
0.56,1.02,COc1cc(/C=C/c2nc3ccccc3c(=O)[nH]2)cc(Br)c1O
0.6,-0.02,COCCSc1ccccc1C(=O)NCc1ccc(S(N)(=O)=O)cc1
0.49,0.15,O=C(CN1C(=O)NC2(CCCCC2)C1=O)Nc1ccc(F)cc1
0.8,0.92,CCCc1cc(=O)[nH]c(SCC(=O)Nc2nonc2N)n1
0.16,0.88,COc1cc(OC)cc(C(=O)N(CN2CCCC2=O)c2ccccc2OC)c1
0.93,0.24,O=C(O)CCS(=O)(=O)Cc1ccccc1F
1.32,0.02,CC(O)[C@H](NC(=O)C1CCN(C(=O)[C@H](Cc2ccccc2)NC(=O)OC(C)(C)C)CC1)C(=O)O (some centres undefined)
0.9,-0.07,FC(F)(F)c1ccccc1NC1=NCCC1
0.18,1.11,Cc1noc(/C=C/c2ccccc2F)c1S(=O)(=O)N1CCC(C(=O)N2CCN(C)CC2)CC1

# Grouped by structure: the entries above with a thiophene ring, fused or not (4)
KCNQ2 pot,KCNQ2 pot baseline,Molecule
0.5,-0.11,COC(=O)C1=CN(Cc2cccs2)C=C(C(=O)OC)C1c1cccc(O)c1
1.58,1.4,CCOC(=O)N1CCN(C(=O)c2cc3c(-c4ccc(Cl)cc4)nn(C)c3s2)CC1
0.73,1.13,Cc1ccsc1/C=N/Nc1nc2ccccc2[nH]1
0.72,-1.45,CCOC(=O)c1c(NC(C)=O)sc2c(O)c(Br)ccc12

# More structures
KCNQ2 pot,KCNQ2 pot baseline,Molecule
1.71,0.5,Cc1cc(C(=O)CSc2nnc(N)s2)c(C)n1Cc1ccco1
0.12,1.67,Cc1nc(NC(=O)C2CC2)sc1C(=O)N(C)C
0.93,-1,O=C(NCCCN1CCN(c2ccc(F)cc2)CC1)c1cccc(N2CCCC2=O)c1
1.02,-1.54,Cc1ccc(N2CC(C(=O)OCC(=O)c3ccc(C)c([N+](=O)[O-])c3)CC2=O)cc1 (centres undefined)
0.46,-0.7,Cc1ccc(Cn2ncc3c(NN)ncnc32)cc1
0.04,0.52,CCNC(=O)CC1C(=O)N(c2ccccc2)C(=O)N1CCc1ccc(OC)cc1 (centres undefined)
2.71,-2.31,O=C1CCCC2=C1C(c1ccncc1)c1c(nc(SCc3ccccc3)[nH]c1=O)N2 (centres undefined)
0.38,0.62,Cc1cc(C)c(C)c(S(=O)(=O)NCC(=O)O)c1C
2.02,-0.11,CCNC(=S)NNC(=O)C1CCCCC1
1.29,-1.28,Cc1cc(C)n(CC(=O)N/N=C/c2cc([N+](=O)[O-])ccc2O)n1
0.92,-0.44,Cc1cccc(CN2CCN(C(=O)CCl)CC2)c1
12.3*,0.5*,Cc1ccc(N=Cc2cc(Br)cc(Cl)c2O)cc1
0.42,-0.2,O=C(c1c(F)cccc1F)N1CCN(c2ncccn2)CC1
0.08,-1.47,Cc1ccc(C(=O)Nc2ccccc2C(=O)NC(C(=O)O)C(C)C)cc1 (centres undefined)
3.45,0.98,COc1ccc(/C=N/Nc2nn3cnnc3c3ccccc23)cc1
2.29,-2.5,O=C(NCC1([N+](=O)[O-])CN(C(=O)c2ccccc2)CN(C(=O)c2ccccc2)C1)c1ccccc1
1.06,-1.3,O=C1Nc2ccc(Br)cc2C1(O)Cc1ccccn1 (centres undefined)
0.77,-0.03,N#Cc1c(-c2ccc(F)cc2)nc(-c2ccccc2)[nH]c1=O
2.51,0.13,O=C(NCc1ccc2c(c1)OCO2)c1ccc(N2CCCCCC2)c([N+](=O)[O-])c1
1.02,0.92,CCCCNc1c([N+](=O)[O-])c(=O)n(C)c2ccccc12
0.95,0.94,Cc1cc(NC(=O)CN2C(=O)NC3(CCCCC3C)C2=O)no1 (centres undefined)
0.27,1.73,Cc1ccc(C2CCN(C(=S)Nc3cccc(C)c3)C2)cc1 (centres undefined)
0.59,0.01,COc1ccccc1OCCSc1nc2ccccc2n1CC(O)CO (centres undefined)
0.01,-0.52,CC(=O)c1sc(NC(=O)COc2ccc(Br)cc2)nc1C
0.65,-0.63,Cc1cccc(NC(=O)CSc2nnc(NC(=O)C3CCC3)s2)c1
1.78,-1.46,O=C1CCCN1c1ccc(S(=O)(=O)N2CCN(c3ccccc3)CC2)cc1
0.15,0.59,O=C(CSc1ncccn1)Nn1cnnc1
0.91,-0.21,N=c1oc2ccccc2cc1C(=O)Nc1ccccc1
0.22,-0.96,COC(=O)c1cc(C(=O)NC(C)(C)CC(C)(C)C)cc([N+](=O)[O-])c1
0.67,0.23,C/C(N)=C(/C#N)C(=O)COC(=O)CCS(=O)(=O)c1ccccc1
0.03,-1.36,CCOC(=O)c1[nH]c(C)c(C(=O)NCCC2=CCCCC2)c1C
1.61,-2.98,O=C(Nc1ccccc1)Nc1nnc(-c2ccccc2)o1
1.91,-0.82,O=C(Nc1ccc([N+](=O)[O-])cc1Br)c1cccnc1
0.7,0.8,Cn1c(C(O)c2ccc(Cl)cc2)nc(Cl)c1Cl (centres undefined)
0.12,1.85,COc1ccc(CC(=O)NCC2CCCN(Cc3cccc(SC)c3)C2)cc1 (centres undefined)
0.66,-0.4,CC1CCCCC1NC(=O)C1CCC(CNc2c(N3CCCCC3)c(=O)c2=O)CC1 (centres undefined)
0.93,-0.13,O=C(O)/C=C/C(=O)Nc1ccc(-c2ccccc2)cc1
0.31,-0.4,O=C(COC(=O)CNC(=O)c1cccc(F)c1)NCCC1=CCCCC1
0.13,1.85,C[C@@H]1O[C@@H](OC[C@H]2O[C@@H](Oc3c(-c4ccc(O)c(O)c4)oc4cc(O)cc(O)c4c3=O)[C@H](O)[C@@H](O)[C@@H]2O)[C@H](O)[C@H](O)[C@H]1O
0.25,-1.2,C=CCOc1ccc(C=Nc2cccc(Cl)c2)c(O)c1
1.36,-2.49,CCN(CC)S(=O)(=O)c1cccc(C(=O)N[C@H](C(=O)NCc2ccccc2F)C(C)C)c1
1.63,-1.5,COc1ccc2c(c1)c(C(C)=O)c(C)n2CCc1ccc(OC)c(OC)c1
1.14,-1.97,Cc1nc(N2CCOCC2)nc(Oc2ccccc2F)c1[N+](=O)[O-]
0.26,-1.41,Cc1ccc(C)c(C(C)NC(=S)NC2CCCCC2)c1 (centres undefined)
0.95,1.41,CN(C)c1ccc(C(=S)Nc2ccccc2)cc1
0.37,0.13,Nc1oc2ccc(F)cc2c(=O)c1C=O
0.6,-0.37,O=C(NCCNC(=O)c1ccco1)c1cccc(F)c1
0.11,-0.03,CC1Cn2c(CCc3ccccc3)nnc2S1 (centres undefined)
1.55,1.57,O=C1OC(N2CCN(C(=O)c3ccco3)CC2)c2ccccc21 (centres undefined)
0.15,0.22,CCCc1nnc(NC(=O)COC(=O)c2cc(C)nc3ccccc23)s1
1.8,0.3,O=C(Cn1nnc(-c2ccccc2F)n1)Nc1ccc2c(c1)OCCO2
1.24,1.01,Cc1cc(C)n2nc(N)c(N=Nc3ccc(Cl)cc3)c2n1
0.11,1.6,CCOc1ccc(N(CC(=O)Nc2cccc(N(C)S(C)(=O)=O)c2)S(=O)(=O)c2ccccc2)cc1
1.75,1.86,O=C(CSc1ncccc1-c1nc2ccccc2[nH]1)N1CCCCC1
0.93,-1.17,COc1ccc(/C=C(\C#N)C(=O)NC2CCS(=O)(=O)C2)cc1OC (centres undefined)
0.33,0.04,O=C(Nc1cccnc1)C1CCCN(S(=O)(=O)c2ccccc2)C1 (centres undefined)
0.03,-0.1,CN(CCn1ccnc1)C(=O)CC1C(=O)NCCN1Cc1ccccc1C(F)(F)F (centres undefined)
0.1,-1.86,CCCN1CCN(C(=O)c2cc(COc3ccc(F)cc3F)on2)CC1
0.86,-2.04,CCOC(=O)c1[nH]c(C)c(C(=O)Nc2cccc(Cl)c2C)c1C
0.32,-2.61,O=C(NCCc1nc2ccccc2[nH]1)c1cc([N+](=O)[O-])cc([N+](=O)[O-])c1

# Further structures.
KCNQ2 pot,KCNQ2 pot baseline,Molecule
0.86,-0.68,COC(=O)COc1ccc2c(-c3cccc([N+](=O)[O-])c3)cc(=O)oc2c1
2.16,-0.57,O=C(Cn1cnc2ccccc2c1=O)Nc1nnc(C2CC2)s1
2.41,-1.31,Cc1c(Cc2ccccc2)c(=O)oc2cc(OCC(=O)NCc3ccccn3)ccc12
2.12,-1.29,O=C(OCC(=O)N1CCN(C(=O)c2ccco2)CC1)c1cc(S(=O)(=O)Nc2ccc(Cl)cc2)ccc1O
0.99,-0.82,Cc1ccc(C23CC4CC(CC(C(=O)NCC(=O)O)(C4)C2)C3)cc1
0.43,-0.22,COc1ccccc1C(O)P(=O)(OCC(C)C)c1ccc(N(C)C)cc1 (centres undefined)
1.46,0.01,N#Cc1c(-c2ccccc2)c(-c2ccccc2)n[nH]c1=O
0.09,0.88,COC(=O)c1[nH]nc(-c2ccccc2)c1-c1ccccc1
0.4,0,O=C1NC2(CCc3ccccc3C2)C(=O)N1CCOc1cccc(Cl)c1 (centres undefined)
0.21,-0.75,O=C1CC(SCc2nc3ccccc3[nH]2)C(=O)N1c1ccc(F)c(Cl)c1 (centres undefined)
0.33,-0.03,CCn1c(C)c(P(c2ccccc2)c2ccccc2)[n+]2ccccc12
2.87,-1.45,Cc1cc(NC(=O)CSc2nnc(NC(=O)C3CC(=O)N(c4ccccc4C)C3)s2)no1 (centres undefined)
0.53,0.11,CCOC(=O)CN1Cc2cccc(C(=O)O)c2C1=O
0.32,0.99,O=c1[nH]c2cc3ccccc3cc2nc1C(F)(F)F
0.26,-1.05,CCN(CC)CCCNC(=S)Nc1ccc(Br)cc1
0.28,0.13,CCc1ccc(CN2CCCC(CCC(=O)N3CCN(c4ccccn4)CC3)C2)o1 (centres undefined)
0.33,-0.94,CC(C(O)c1cc(=O)c(OCc2ccccc2)co1)[N+](=O)[O-] (centres undefined)
0.07,1.02,CCOC(=O)c1c(C)n(C)c2ccc(OC)c(NC(=O)CN3CCN(C(=O)c4ccco4)CC3)c12
2.36,-0.46,COc1cc(NC(=O)C2CC(c3ccccc3O)=NO2)c(OC)cc1Cl (centres undefined)
0.36,-0.13,Clc1ccc(-n2ncc3c(NCc4ccc5c(c4)OCO5)ncnc32)cc1
0.43,0.44,COc1c(C)c2c(c(O)c1C/C=C(\C)CCC(=O)O)C(=O)OC2
1.62,-0.28,COC(=O)c1ccccc1NC(=O)CSc1nnc(-c2cccnc2)n1C
0.32,0.08,CCOC(=O)N1CCC(=NNc2nc(C)cc(=O)[nH]2)CC1

# Screens (PubChem)
